Compound activity deposited in PubChem by several laboratories.
Mtb betalactam = beta-lactam sensitization of Mtb H37Rv, H37Rv | hit rate 0.27% among 330,000 | M. tuberculosis H37Rv growth with meropenem, percent inhibition; hits of this screen are not shown here | inhibition, % at 25 µM;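 active = about 74% or more and at least 40 points above the plate without the antibiotic, then above 30% in a dose series; inconclusive = first-round hits that could not be retested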;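 also: growth measured after seven days incubation then overnight dye step; 0% = bacteria only wells and 100% = bacteria with antibiotic; twin plates without the antibiotic show which effects depend on it; some results filed as inactive read as strong as hits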
RecA intein inh = Mtb RecA intein splicing inhibitors, primary screen, biochemical, fluorescence, HTS | Protein RecA (Mycobacterium tuberculosis (strain ATCC 25618 / H37Rv)), P9WHJ3 | hit rate 0.75% among 290,000 | cell-free RecA intein splicing | inhibition, %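 (about 9 µM by stock and volumes)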 | AID 2221, 2009; in the data active = inhibition above about 30%; inconclusive = no clear call, values can overlap the other calls;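 also: 0% = vehicle wells and 100% = reference inhibitor control wells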
Target sequence (P9WHJ3 whole entry, looked up): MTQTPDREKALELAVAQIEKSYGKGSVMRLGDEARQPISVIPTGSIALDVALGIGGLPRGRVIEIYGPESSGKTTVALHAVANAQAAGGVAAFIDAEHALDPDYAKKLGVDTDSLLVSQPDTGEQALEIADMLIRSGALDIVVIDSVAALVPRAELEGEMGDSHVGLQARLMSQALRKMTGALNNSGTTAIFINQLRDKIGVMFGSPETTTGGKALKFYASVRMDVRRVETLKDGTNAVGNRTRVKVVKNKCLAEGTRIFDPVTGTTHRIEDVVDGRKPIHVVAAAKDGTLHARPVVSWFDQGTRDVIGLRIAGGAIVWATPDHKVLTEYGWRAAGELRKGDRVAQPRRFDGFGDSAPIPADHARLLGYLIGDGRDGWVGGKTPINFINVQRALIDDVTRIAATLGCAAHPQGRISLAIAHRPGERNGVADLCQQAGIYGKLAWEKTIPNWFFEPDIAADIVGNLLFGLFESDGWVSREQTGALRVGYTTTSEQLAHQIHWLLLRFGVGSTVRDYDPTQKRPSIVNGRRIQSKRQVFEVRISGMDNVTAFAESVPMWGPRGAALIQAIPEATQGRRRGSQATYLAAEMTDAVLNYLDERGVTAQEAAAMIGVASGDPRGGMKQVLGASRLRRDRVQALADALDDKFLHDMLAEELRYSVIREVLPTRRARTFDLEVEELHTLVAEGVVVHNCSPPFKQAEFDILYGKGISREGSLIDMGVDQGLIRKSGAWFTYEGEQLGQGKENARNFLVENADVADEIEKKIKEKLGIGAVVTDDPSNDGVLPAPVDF
YopH inh = YopH tyrosine phosphatase inhibitors, primary screen, biochemical, fluorescence Ex485/Em525 | inhibition, %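 (about 10 µM by stock and volumes)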 | hit rate 0.16% among 140,000;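 active = inhibition of 50% or more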;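 also: controls were vehicle for no effect and minimum signal wells for full effect; inactives centre near -20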
Mtb H37Rv = M. tuberculosis H37Rv growth inhibitors, H37Rv strain (AID 1626) | M. tuberculosis H37Rv growth inhibition; higher % means a stronger effect | inhibition, % at 10 µM, or IC50 in µM where a hit was titrated | hit rate 0.95% among 220,000;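 active = confirmed in a dose series; inconclusive = inhibition above 80% but not taken into the dose series; inactive = below 80% or under 30% at every dose of the series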;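 also: bacteria incubated seven days before Alamar blue readout; 0% = bacteria only wells and 100% = bacteria with antibiotic wells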
Arbovirus anti = antivirals against arbovirus infection, primary screen, cell-based, full library, 10K replicate subset; arbovirus infection cell-based antiviral screen; hit rate 0.37% among 200,000; inhibition, % at 10 µM;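 active = inhibition from about 30%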;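 also: bluetongue infection of BSR cells; cell survival read as ATP light after 72 h; 0% = infected wells without compound and 100% = uninfected wells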
Arbovirus anti repeat = second read-out of Arbovirus anti, no call of its own (marks repeat the call); inhibition, %; measured here: 10K subset replicate screen; many hits read low in the repeat;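 first of two repeat runs on a subset; 0% = infected and 100% = uninfected wells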
* = called active by the depositor; ? = inconclusive; · = no result given; & = joins results of further samples.

SMILES	Mtb betalactam	RecA intein inh	YopH inh	Mtb H37Rv	Arbovirus anti	others
COc1ccc(OC)c(-c2csc(NC(=O)CN3C(=O)C4CCCCC4C3=O)n2)c1 (stereo not given)	-9	1.2	·	·	·
O=C(NC1CC1)C1CCN(c2ncnc3c2sc2cccc(F)c23)CC1	-8	-1.5	-40	9%	8
Cc1cc(S(=O)(=O)N2CCOCC2)ccc1OCC(=O)Nc1cccc(C(F)(F)F)c1	4	-0.5	·	·	·
N#CCN1C(=O)C2CCCN2c2ccc(S(=O)(=O)N3CCOCC3)cc21 (stereo not given)	-5	-19	·	2%	12
O=C(c1ccc(CSc2nc3ccncc3[nH]2)cc1)N1CCCCCC1	43	-1.9	·	-3%	·
Cc1ccc(NCc2nnc(SCC(=O)Nc3cccc(O)c3)n2CC2CCCO2)c(C)c1 (stereo not given)	7	1.9	-23	1%	0
O=C(Nc1ccccc1)C1CCN(C(=O)c2ccco2)CC1	5	3.6	·	·	·
CC(C)CNC(=O)COC(=O)c1ccc([N+](=O)[O-])cc1Cl	1	-3.2	-12	-1%	9
O=C(CNC(=O)c1ccccc1)NCC(=O)OCc1ccc(Cl)cc1	-23	-2.8	-44	1%	4
O=C(NN=C1CCCC1)C1COc2ccccc2O1 (stereo not given)	0	-2.0	·	-5%	1
CN(CCCCCNC(=O)/C=N/O)Cc1ccccc1	·	·	-21	-1%	-1
CCOC(=O)c1cc(-c2cccs2)nc2c1c(C)nn2-c1ccccn1	96	-10	·	24%	-15
COc1ccc(COC(=O)c2cccc(S(=O)(=O)N3CCN(C(C)=O)CC3)c2)cc1F	1	-0.8	·	·	·
COc1ccc(S(=O)(=O)N2CCN(S(=O)(=O)c3ccc(C(F)(F)F)cc3)CC2)cc1C	0	-1.3	-31	·	8
CC(=O)N1CCCc2cc(S(=O)(=O)CCC(=O)Nc3cccc(C)c3C)ccc21	-2	1.7	·	·	·
COc1ccc(OC)c(N(CC(=O)N2CCC(C)CC2)S(=O)(=O)c2ccccc2)c1	3	1.2	1	0%	-10
Cc1ccc(SCC(=O)NNC(=O)c2ccccc2)cc1C	-6	-1.3	·	·	·
COc1ccc(CCNC(=O)Nc2cccs2)c(OC)c1	9	1.6	·	·	·
O=C(N/N=C\c1cn[nH]c1-c1ccc(Cl)cc1)c1cccs1	93	-1.1	·	5%	·
CC(=O)N1CCN(C(=O)c2ccc(S(=O)(=O)Nc3ccccc3Cl)cc2)CC1	-7	-1.3	·	·	·
CCCN(CCC)C(=O)c1c(NC(=O)CC)sc2c1CCCCC2	1	-1.8	-22	-1%	3
O=C(COc1ccc(/C=N/NS(=O)(=O)c2ccccc2)cc1)Nc1cccc(Cl)c1	2	0.9	-34	3%	6
Cc1nc(CSc2nc3[nH]ncc3c(=O)n2-c2ccccc2)cs1	-6	6.9	1	2%	2
COCCn1c(SCC(=O)c2ccccc2)nc2ccccc2c1=O	1	3.6	·	5%	-2
COc1ccc([C@H]2C=C(C(=O)O)O[C@@H](OCc3ccc(CO)cc3)C2)cc1	-4	1.6	·	-2%	·
C(=NC12CN3CN(CN(C3)C1)C2)c1cccs1	3	1.0	-17	-4%	3
CC1CCC[C@H](O)CCCCCc2cc(O)cc(O)c2C(=O)O1 (stereo not given in full)	0	-2.4	-32	3%&4%	17&11
COC(=O)C1=C(c2ccccc2)C[C@@H]2CC[C@H]1N2C(=O)N1CCOCC1	-2	-0.9	·	-5%	·
Cc1ccc(-n2nc(-c3ccc(N)cc3)cc2N)cc1	-3	0.6	10	8%	0
O=C(Nc1ccccc1C(=O)N1CCOCC1)c1ccc([N+](=O)[O-])cc1	1	-4.2	·	2%	1
Cc1nn(CC(=O)NCCCN2CCN(Cc3ccccc3)CC2)c(=O)c2cc(-c3ccccc3)nn12	?	4.0	·	·	·
C=CC[C@H]1CC(C)=C[C@H](CC=C)N1	-9	-3.7	·	-3%	1
O=C(Cn1nc(C(F)(F)F)c2c1CCCC2)N1CCOCC1	-3	1.0	·	-1%	-1
Nc1cc(=O)nc(SCC(=O)Nc2ccccc2Cl)n1-c1ccccc1	-2	-4.0	·	-4%	10
COc1ccc(C(=O)Nc2ccccc2C(=O)Nc2cccnc2)cc1	1	0.4	·	·	·
C(=N\Nc1ccc(-n2ccnc2)nn1)/c1ccccc1	6	4.7	-22	-6%	-8
O=C(CN1C(=O)C2CCCCC2C1=O)N1CCN(c2ccccc2)CC1 (stereo not given)	-5	-0.6	·	-3%	3
CCOc1ccc(NC(=S)Nc2ccccc2C2CC2)cc1	88	-1.2	·	78%	-4
CCOC(=O)/C=C1\SCC(=O)N1CC(=O)Nc1ccccc1OC(F)F	7	-0.1	-20	2%	-6
CC(=O)c1cccc(NC(=O)NCc2ccccn2)c1	-3	-1.8	-19	-18%	5

2 consecutive compounds already listed, for reference:
SMILES	Mtb betalactam	RecA intein inh	YopH inh	Mtb H37Rv	Arbovirus anti	others
CCOC(=O)/C=C1\SCC(=O)N1CC(=O)Nc1ccccc1OC(F)F	7	-0.1	-20	2%	-6
CC(=O)c1cccc(NC(=O)NCc2ccccn2)c1	-3	-1.8	-19	-18%	5

Next section.
SMILES	Mtb betalactam	RecA intein inh	YopH inh	Mtb H37Rv	Arbovirus anti	others
O=C(NCCc1ccccc1)c1cccnc1N1CCCCCC1	1	0.1	-24	-11%	-9
Cc1ccc(Br)cc1S(=O)(=O)N1CCN(c2ccccc2)CC1	6	11	-89	4%	3
Cc1cnc(NC(=O)c2cccs2)s1	10	-0.5	·	·	·
Cn1c(C(=O)N2CCCC2)cc2c(=O)n(C)c3ccccc3c21	·	·	-14	7%	3	Arbovirus anti repeat=1
Cc1ccc(C(=O)N2CCOCC2)cc1S(=O)(=O)N1CCCC1	-2	0.5	·	·	·
OCC1(CC2CCCCO2)CCN(Cc2cccc(O)c2)CC1 (stereo not given)	6	-4.4	·	4%	-2
COc1ccc(/C(C)=N/NC(=O)C(NC(=O)c2ccccc2)c2n[nH]c(=O)c3ccccc23)c(OC)c1 (stereo not given)	-7	1.3	·	18%	·
Cc1ccc(C(=O)N/N=C/C2=Cc3ccccc3OC2C)cc1 (stereo not given)	82	-3.0	-20	56%	-11
CCC(CC)COC(=O)C1=C(C)NC(=O)NC1c1ccc(OC)cc1 (stereo not given)	3	-2.1	·	·	·
C=CCN(C(=O)c1csnn1)C(C(=O)NC1CCCC1)c1ccc(OC)cc1 (stereo not given)	-5	-5.8	·	·	·
COc1ccc(Sc2ccc(/C=C3\C(=O)NN(c4ccccc4)C3=O)o2)cc1	76	0.4	-10	75%	-33
CCCCNC(=O)CSc1nc2ccc(N3CCOCC3)cc2c(=O)n1CCc1ccccc1	0	-12	-5	0%	1
COc1ccc(NC(=S)N(CCN2CCOCC2)Cc2cc3cc4c(cc3[nH]c2=O)OCCO4)cc1	5	-4.1	·	1%	5
COc1ccc(C(=O)N(CC(=O)Nc2sc(C)c(C)c2C(N)=O)C2CCCC2)cc1	-2	2.3	·	·	·
N#CCSc1ncccc1-c1nc2ccccc2[nH]1	-8	-44	-13	-5%	0
COC(=O)CCC(=O)N(CCN(C(=O)CCC(=O)OC)c1ccccc1)c1ccccc1	-4	-1.7	·	2%	3
O=C(c1ccc(Cl)c(S(=O)(=O)N2CCCCCC2)c1)N1CCCCC1	5	-2.3	·	·	·
CC12CCCCC1c1ccccc1C(=NCC(=O)O)N2 (stereo not given)	-1	0.7	-21	2%	-2
Cc1ccc(C(=O)OCn2nnc3ccccc3c2=O)cc1[N+](=O)[O-]	100	1.0	·	?	-1
Cc1nc2ccc(NC(=O)COc3ccccc3[N+](=O)[O-])cc2s1	1	5.2	·	-3%	-10
CCOc1cc(CNCc2ccncc2)cc(Cl)c1OC	-5	0.0	-22	-1%	2
NC(=O)CCCCC(=O)OCCCc1cccs1	3	2.2	-15	-3%	2
Cc1[nH]c(=O)[nH]c(=O)c1NC(=O)c1sc2nc3c(C)cccc3cc2c1N	2	-5.7	-27	6%	1
Cn1cccc1Cc1nnc(SCC(=O)Nc2ccc3c(c2)OCCO3)n1CCc1ccccc1	0	3.9	-38	-3%	-1	Arbovirus anti repeat=1
O=C1c2ccccc2C(=O)N1CSc1nnnn1-c1ccccc1	1	-1.2	2	5%	4	Arbovirus anti repeat=3
Cc1ccc(OC(=S)Nc2ccc(O)cc2)cc1	2	·	-10	1%	-10
Cc1ccc(-n2nnnc2-c2cnn(-c3ccc(F)cc3)c2C(F)(F)F)cc1	-2	·	3	3%	4
COc1ccc(NC(=O)C2CCCN(S(=O)(=O)c3cccc4cccnc34)C2)cc1 (stereo not given)	4	0.4	2	3%	3	Arbovirus anti repeat=1
CC(=O)NCCn1c(SCc2ccccc2F)nc2ccccc2c1=O	3	2.2	2	4%	0
O=C(Nc1nnc(CCN2CCCCC2)s1)c1ccc(Br)cc1	1	0.3	·	-2%	0
Cc1ccc2oc(=O)c3cnn(CC(=O)N(CCN(C)C)Cc4ccco4)c3c2c1	2	1.1	10	-9%	5
CC(C)c1ccccc1NC(=O)COC(=O)c1cc(=O)[nH]c(=O)[nH]1	-4	-3.0	·	-2%	4
COc1ccccc1NS(=O)(=O)c1cccc(C(=O)NCC2(N(C)C)CCCCC2)c1	-4	-7.6	·	·	·
Fc1cccc(C2NN=C(c3ccccc3)S2)c1 (stereo not given)	-4	0.0	0	-2%	-2
Cc1ccc(C(=O)N2CCN(c3ccc([N+](=O)[O-])cc3)CC2)o1	-6	2.2	·	·	·
CCn1c(CNc2ccc(Cl)cc2)nnc1SCc1ccc(C)cc1	-5	-0.4	-8	-6%	-15
CCOc1ccc(C(=O)N2CCN(c3ccccc3)CC2)cc1	-4	0.8	·	-4%	10
CCOC(=O)c1cccc(NC(=O)CCc2nnc3ccc(N4CCCCC4)nn23)c1	-4	-4.3	·	·	·
O=C(CC1C(=O)NCCN1Cc1ccc(F)c(F)c1)NCCCn1ccnc1 (stereo not given)	2	0.9	·	-9%	0
O=C(CSc1nnc(COc2ccc(Cl)cc2)o1)N1CCCC1	2	-1.3	·	·	·
O=C1CC(N2CCC(c3nc4ccccc4[nH]3)CC2)C(=O)N1c1cccc(F)c1 (stereo not given)	-4	3.5	·	-5%	4
COC(=O)c1cn(NC(=O)/C=C/c2cc(OC)ccc2OC)c(=O)c2ccccc12	3	-7.5	-6	-4%	-6
CCN(CC)C(=O)/C(=C/c1cccc([N+](=O)[O-])c1)NC(=O)c1ccco1	1	-0.9	·	-4%	-2
O=C(O)Cn1cc2c(n1)CCCC2	-1	-0.1	-34	-1%	8
Cc1ccc(NC(=O)C2CCCN2C(=O)Oc2ccccc2)cc1C (stereo not given)	4	·	-12	4%	3
COc1c(C(=O)NCCSC(C)(C)C)ccc2ccccc12	3	0.1	-9	7%	5
CCn1cc(CNC(=O)c2ccc(OC3CCN(Cc4ccccn4)CC3)cc2)cn1	3	0.1	·	·	·
CC1CCCCN1C(=O)Cn1cnc2c1c(=O)n(C)c(=O)n2C (stereo not given)	-1	-1.8	·	-3%	1
CC(NC(=O)NC(=O)c1ccc(Cl)cc1Cl)C1CC1 (stereo not given)	-8	-8.4	·	6%	-2
Nc1cc(=O)[nH]c(SCC(=O)Nc2nc3ccc([N+](=O)[O-])cc3s2)n1	-1	-0.5	·	0%	-4
CS(=O)(=O)c1ccc(C(=O)N(Cc2ccccc2)c2ccccc2)cc1	-5	1.9	·	·	·
CC1(C)CC(CCNC(=O)c2ccc(-n3cnnn3)cc2)CC(C)(C)N1	4	-1.2	-23	-10%	5
CC1Cc2cc(S(=O)(=O)CCC(=O)NC3CCCCC3)ccc2N1C(=O)C1CC1 (stereo not given)	3	0.2	·	·	·
CC(=O)Nc1ccc(OCC(O)Cn2c(C(C)C)nc3ccccc32)cc1 (stereo not given)	-5	-3.0	·	-1%	-1
CN(C)S(=O)(=O)c1ccc(C(=O)OCCN=C2NS(=O)(=O)c3ccccc32)cc1	-2	0.0	·	·	·
Cc1nc2ccc(NC(=O)c3cnc(Cl)c(Cl)c3)cc2s1	29	1.7	·	·	·

Arranged by number of heavy atoms (smallest number first): part of the list above
SMILES	Mtb betalactam	RecA intein inh	YopH inh	Mtb H37Rv	Arbovirus anti	others
Cc1nc2ccc(NC(=O)c3cnc(Cl)c(Cl)c3)cc2s1	29	1.7	·	·	·
CC1CCCCN1C(=O)Cn1cnc2c1c(=O)n(C)c(=O)n2C (stereo not given)	-1	-1.8	·	-3%	1
Nc1cc(=O)[nH]c(SCC(=O)Nc2nc3ccc([N+](=O)[O-])cc3s2)n1	-1	-0.5	·	0%	-4
CS(=O)(=O)c1ccc(C(=O)N(Cc2ccccc2)c2ccccc2)cc1	-5	1.9	·	·	·
CC1Cc2cc(S(=O)(=O)CCC(=O)NC3CCCCC3)ccc2N1C(=O)C1CC1 (stereo not given)	3	0.2	·	·	·

This is a subset; count on the stated rates, not on these rows.
